HPGD inh: HPGD (human) dehydrogenase inhibition; P15428; purified HPGD, NADH fluorescence kinetic, PGE2 substrate; Potency, µM, without a hit: top-dose activity change, negative = inhibition, actives largely listed as inhibitors; hit rate 4.3% among 150,000; active = well fitted inhibition curve with a large enough effect (not every such curve was filed as active); inconclusive = small, poorly fitted or top-dose-only effect, or another doubt; inactive = no such curve, though single readings can be large or run the other way;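 further: top concentration of the series not given in the record; plate controls included wells without enzyme; inactives centre near -10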
Target sequence (P15428 whole entry, looked up): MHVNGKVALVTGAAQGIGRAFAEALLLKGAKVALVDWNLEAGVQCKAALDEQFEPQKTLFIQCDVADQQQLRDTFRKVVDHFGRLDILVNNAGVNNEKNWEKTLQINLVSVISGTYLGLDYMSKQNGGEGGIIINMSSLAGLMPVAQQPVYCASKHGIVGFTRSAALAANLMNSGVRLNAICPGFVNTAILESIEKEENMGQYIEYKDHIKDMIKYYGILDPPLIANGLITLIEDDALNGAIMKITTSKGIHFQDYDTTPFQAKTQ
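NADH formation kinetics: reaction with 30 uM PGE2 and 1 mM NAD+ (final), 20 nM enzyme, Tris-HCl pH 8 with Tween 20, after 15 min compound preincubation at room temperature. Fluorescence change, last versus first of five reads.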
* = called active by the depositor; ? = inconclusive. On the % scale 0 is the no-effect control and ±100 the full control effect; potency means the concentration at half of the fitted maximal effect. A portion of the library, so the mix of outcomes need not match the whole.

nr	SMILES	HPGD inh
1	O=C1COc2ccc(C(=O)COC(=O)CCc3ccc(S(=O)(=O)N4CCOCC4)cc3)cc2N1	-20%
2	CCCOc1ccc(-c2nc(OCC)c3ccccc3n2)cc1	-16%
3	COCCn1c(-c2ccccc2)cnc1N	-8%
4	CCOc1ccc(CNC(=O)c2ccc(Sc3ccc(C)cc3)c(NC(C)=O)c2)cc1	-19%
5	O=C(Nc1cccc(Cl)c1)C1C2CCC3C(CCC21)C3(Cl)Cl (centres undefined)	-10%
6	Cc1ncn(C23CC4CC(CC(C4)C2)C3)n1	-10%
7	Cc1nc(Cl)c(C#N)cc1-c1ccccc1	5%
8	Cc1cccc(NC(=S)N2CCC(c3nc4ccccc4s3)CC2)c1	-6%
9	O=C(NCCSc1ccccc1)c1cncc(Br)c1	-17%
10	COc1ccc(/C=N/Nc2cc(N(C)C)nc(N(C)C)n2)cc1	-6%
11	O=S(=O)(c1ccccc1)N1CCC2(CCCN(c3ccccn3)C2)CC1	-29%
12	COc1cc(C(=O)Nc2cccc3cccnc23)cc(OC)c1OC	?
13	CCOc1ccc(C(C)(C)C)cc1S(=O)(=O)N1CCOCC1	-3%
14	COc1ccccc1NC1=C(Cl)C(=O)N(c2ccccc2)C1=O	20µM*
15	CCC(C)/C(C)=N/NC(=O)C1COc2ccccc2O1 (centres undefined)	-29%

As entered above:
HPGD inh with `COc1ccc(/C=N/Nc2cc(N(C)C)nc(N(C)C)n2)cc1` is entered as -6%
HPGD inh with `Cc1nc(Cl)c(C#N)cc1-c1ccccc1` is entered as 5%
HPGD inh with `COc1ccccc1NC1=C(Cl)C(=O)N(c2ccccc2)C1=O` is entered as 20µM*
HPGD inh with `O=C(Nc1cccc(Cl)c1)C1C2CCC3C(CCC21)C3(Cl)Cl` (centres undefined) is entered as -10%
HPGD inh with `COCCn1c(-c2ccccc2)cnc1N` is entered as -8%

Next part
nr	SMILES	HPGD inh
16	CCCC(=O)Nc1nn(C)c2nc3c(C)cccc3cc12	-29%
17	FC(F)(F)c1cc(-c2ccccc2)nc(N2CCCCC2)n1	-5%
18	Cc1cccc(CNc2ncnc3ccc(-c4ccc5c(c4)OCO5)cc23)c1	?
19	O=C(NC1CCCCC1)C1CC=CCC1C(=O)OCC(Cl)=C(Cl)Cl (centres undefined)	-11%
20	N=c1c[n+](-c2ccc(Cl)cc2)[n-]o1	-15%
21	CC(=O)c1ccc(NC(=O)Nc2ncn(Cc3cccc(C)c3)n2)cc1	-7%
22	CCCn1cnc2c(c1=O)c1nc3ccccc3nc1n2CCC1=CCCCC1	-14%
23	CCn1c(SCC(=O)N/N=C/C=C/c2ccco2)nnc1-c1ccc(OC)cc1	32µM*
24	CCc1cccc(NC(=O)Cc2ccc([N+](=O)[O-])cc2)c1	-1%
25	O=C(NC(Cc1c[nH]c2ccccc12)C(=O)O)c1ccccc1 (centres undefined)	-9%
26	Cc1ccc(N2C(=O)S/C(=C/c3cn(C)c4ccccc34)C2=O)cc1	-11%
27	CNC(=O)/C(=C/c1ccc2c(c1)OCO2)NC(=O)c1ccc(Br)cc1	0%
28	N#CC(CO)(Cc1ccc(OC(F)F)cc1)c1nc2ccccc2[nH]1 (centres undefined)	2%
29	CSc1nc2nccc(/C=C\c3ccccc3)n2n1	-22%
30	Cc1ccc(NC(=O)c2ccc(Nc3ccccc3F)nc2)cc1	-7%
31	O=C(NCc1ccco1)C1OCCc2ccccc21 (centres undefined)	-14%
32	COc1ccc(C[C@@H]2c3cc(OC)c(OC)cc3CC[N@+]2(C)CCC(=O)OCCCCCOC(=O)CC[N@@+]2(C)CCc3cc(OC)c(OC)cc3[C@H]2Cc2ccc(OC)c(OC)c2)cc1OC	-3%
33	Cc1ccc(C)n1-n1c(C)nc2scc(-c3cccs3)c2c1=O	-8%
34	COc1ccc(/C=N/NS(=O)(=O)c2ccccc2)cc1OC(=O)c1ccc(C)cc1	-17%
35	CN(C)S(=O)(=O)c1cccc(NC(=S)Nc2cc(Cl)cc(Cl)c2)c1	-23%
36	COc1ccc2[nH]cc(C(=O)CN3CCCCC3)c2c1	-12%
37	CCOC(=O)CCN(Cc1cccs1)S(=O)(=O)c1ccc(Cl)cc1	-7%
38	CSc1nc(C)cc(Nc2ccc(O)c(CN3CCOCC3)c2)n1	0%
39	Cc1ccc2cc3cc(C(=O)N4CC(C)CC(C)C4)oc3nc2c1 (centres undefined)	16µM*
40	Cc1ccc(S(=O)(=O)N(C)c2ccc(OCC(=O)O)cc2)cc1	-9%
41	Cc1nc(-c2ccccc2)sc1-c1nc(-c2cccnc2)ncc1S(=O)(=O)c1ccccc1	-23%
42	CCN(CC)CCCN1C(=O)C(O)=C(C(=O)c2ccco2)C1c1cc(OC)ccc1OC (centres undefined)	-5%
43	Fc1ccc(CSc2nnc(-c3cc4c(s3)-c3ccccc3CC4)o2)cc1	?
44	CCOC(=O)N1CCN(S(=O)(=O)c2ccc(C(=O)Nc3nnc(CSC)o3)cc2)CC1	-7%
45	CC(=O)c1c(C(C)=O)c(C)n(NC(=O)c2cccnc2)c1C	-5%
46	Cc1ccc(/C=N/NC(=O)c2c(-c3ccccc3)noc2C)o1	-5%
47	Cc1c(C(=O)NC(=S)Nc2ccc3c4c(cccc24)CC3)cccc1[N+](=O)[O-]	-4%
48	O=C1CCC(=O)N1c1ccc(CSc2nnnn2C2CCCCC2)cc1	-11%
49	Cc1noc(C)c1S(=O)(=O)N1CCCC(C(=O)NC2CCCCC2)C1 (centres undefined)	-6%
50	COCCNC(=O)Cn1cnc2ccc(S(=O)(=O)N3CCC(C)CC3)cc2c1=O	-11%
51	Cc1cccc2cc(CN(Cc3cccnc3)C(=O)c3ccncc3)c(=O)[nH]c12	-4%
52	CCOc1ccccc1C1C(C#N)=C(N)Oc2cc(N)ccc21 (centres undefined)	-16%
53	CC1(C)Cc2cccc(OCC(=O)N3CCN(S(=O)(=O)c4ccccc4F)CC3)c2O1	-10%
54	O=C(CN1CCN(c2nc(-c3ccc(Cl)cc3)cs2)CC1)NCc1ccco1	-7%
55	O=C(NCCCn1ccnc1)C1CC2CCC1C2 (centres undefined)	-4%
56	O=c1[nH]nc(Cc2ccc(-c3cccc(Cl)c3)o2)c2ccccc12	-20%
57	CC1CCN(CCc2nc3cc(NC(=O)Nc4ccccc4)ccc3n2C)CC1	-7%
58	CC(C)[C@@H]1NC(=O)c2cc([N+](=O)[O-])cc(I)c2NCC[C@@H](C(N)=O)NC(=O)[C@H](CO)NC1=O	-17%
59	COc1cc(C(=O)Nc2nccs2)c(Br)c(OC)c1OC	-5%
60	COc1ccc(S(=O)(=O)N2CCN(S(=O)(=O)c3ccc4c(c3)OCCO4)CC2)cc1C	-2%
61	Cc1c(NC(=O)c2ccc3c4c(cccc24)CC3)c(=O)n(-c2ccccc2)n1C	-9%
62	COc1cc(OC)c(C2C(C#N)=C(N)OC3=C2C(=O)CC(C)C3)cc1OC (centres undefined)	-8%
63	Cc1cc2cc(CCNC(=O)CC(C)(C)C)c(=O)[nH]c2cc1C	-21%
64	C#CCOCCOCCOCCNc1nc(N2CCN(C(=O)Cn3cc(CCCN=C(N)N)nn3)CC2)nc(N2CCN(C(=O)[C@H](C(C)C)n3cc(CCO)nn3)CC2)n1	-2%
65	O=C(NC12CCC(O)C(SC1)/C2=N/O)c1ccccc1 (centres undefined)	0%
66	COc1ccc(NC(=O)C2CC(c3ccc(OC)c(OC)c3)=NO2)cc1OC (centres undefined)	-21%
67	Cc1cc(N2CCN(c3nc4ccccc4s3)CC2)n2ncnc2n1	-20%
68	O=C1Nc2cc(S(=O)(=O)N3CCCC3)ccc2N2CCCC12 (centres undefined)	?
69	Cc1nnc(SCC(=O)N(Cc2ccccc2)C(C)C)n1-c1ccccc1	-8%
70	C/C(=N\c1nc2ccccc2n1C)c1cc(Cl)ccc1O	1%
71	COC(=O)C1C(=O)c2c(n[nH]c2C)CC1(C)C (centres undefined)	-12%
72	O=C1CC2CS(=O)(=O)CC2N1c1ccc(Cl)cc1Cl (centres undefined)	-10%
73	Cc1cccc(CSc2nnc(-c3cccs3)n2Cc2ccco2)c1	-10%
74	Cc1ccc(CN(c2ccc(C(=O)N3CCCC3)cc2)S(C)(=O)=O)cc1	-13%
75	CC1(C)CC(=O)C2=C(C1)OC1=C(C(=O)CC(C)(C)C1)C2c1ccc(O)cc1O	3.2µM*

Taken from the listing, four compounds:
nr	SMILES	HPGD inh
64	C#CCOCCOCCOCCNc1nc(N2CCN(C(=O)Cn3cc(CCCN=C(N)N)nn3)CC2)nc(N2CCN(C(=O)[C@H](C(C)C)n3cc(CCO)nn3)CC2)n1	-2%
65	O=C(NC12CCC(O)C(SC1)/C2=N/O)c1ccccc1 (centres undefined)	0%
66	COc1ccc(NC(=O)C2CC(c3ccc(OC)c(OC)c3)=NO2)cc1OC (centres undefined)	-21%
67	Cc1cc(N2CCN(c3nc4ccccc4s3)CC2)n2ncnc2n1	-20%

Next records
nr	SMILES	HPGD inh
76	COc1ccc(NC(=O)CSc2nnc(-c3ccoc3C)n2CCc2ccccc2)cc1	-4%
77	Cc1ccccc1-n1c(SCC(=O)N/N=C/C=C/c2ccccc2[N+](=O)[O-])nc2ccccc2c1=O	-8%
78	Cc1ccc(NC(=O)CSCC(=O)Nc2ccc(N3CCOCC3)c(Cl)c2)cc1	-15%
79	COc1ccc(-c2nc3ccccn3c2C=O)cc1	-26%
80	Cc1ccc2nc(SCC(=O)Nc3cccc([N+](=O)[O-])c3)[nH]c2c1	-4%
81	CC(C)(C)NS(=O)(=O)c1ccc(-c2csnn2)s1	-20%
82	CCOC(=O)N1CCC(NC(=O)C2CCCN(Cc3nc(-c4cccc(Cl)c4)oc3C)C2)CC1 (centres undefined)	-19%
83	O=C(NCCNc1ccc([N+](=O)[O-])cc1)c1cccc2c(Br)cccc12	-5%
84	Cc1cc(NC(=O)Nc2cccc3ccccc23)no1	-1%
85	O=C(Cn1cc(SCc2ccc(Cl)cc2)c2ccccc21)N1CCOCC1	-17%
86	COc1cc(C(=O)Sc2ccc(C)cc2)cc(OC)c1OC	-9%
87	O=S(=O)(Nc1ccc(N2CCOCC2)cc1)c1ccc2ccccc2c1	-21%
88	CCN(CC)c1ccc(NC(=O)CN2CCN(CC(=O)Nc3ccccc3F)CC2)cc1	-1%
89	O=C(Nc1ccc2c(c1)OCO2)c1ccncc1	-6%
90	c1ccc(C2=NNC(=NC3CC3)SC2)cc1	?

Two entries from above in another layout:
#59 COc1cc(C(=O)Nc2nccs2)c(Br)c(OC)c1OC
  HPGD inh: -5%
#90 c1ccc(C2=NNC(=NC3CC3)SC2)cc1
  HPGD inh: ?

Additional structures follow:
nr	SMILES	HPGD inh
91	CCOc1ccc2nc(NC(=O)CSc3ccc(Cl)cc3)sc2c1	-25%
92	C=CC[C@@H]1Cc2c(Br)ccc(Br)c2[C@@H](CC=C)N1	-8%
93	CC(C)(C)NC(=O)C1CCCN(S(=O)(=O)c2cccc3cccnc23)C1 (centres undefined)	-3%
94	COC(=O)[C@@H](N)Cc1ccc(O)cc1	-1%
95	CCn1ncc(/C=C/C(=O)C2CC2)c1C	-14%
96	Cn1c(=O)c2c(ncn2C[C@@H](O)CO)n(C)c1=O	-13%
97	NC(=O)COc1cccc2cccnc12	-13%
98	COc1cccc(-n2ccnc2SCC(=O)N2CCc3ccccc32)c1	-5%
99	COc1ccc2c(c1)C(C)=CC(C)(C)N2C(=O)Nc1ccccc1	?
100	O=C(Nc1cccc(F)c1)NC1(C(=O)N2CCN3CCCC3C2)CCCCC1 (centres undefined)	-10%
101	Cc1ccccc1OCCSCc1nc2ccccc2[nH]1	-5%
102	O=C(N=Nc1c(O)[nH]c2ccccc12)c1cccc(S(=O)(=O)N2CCCCC2)c1	-21%
103	O=C(Oc1ccc(-c2nnco2)cc1)N1CCCCC1	-18%
104	CC(C)(C)OC(=O)N/N=C/c1ccc(C(=O)O)cc1	-13%
105	COc1ccc(C2/C(=C(/O)c3ccccc3)C(=O)C(=O)N2CO)cc1 (centres undefined)	-13%
106	O=C(NC1CCCCC1)c1cccc(Cn2cc(Cl)cn2)c1	-17%
107	CCOC(=O)Cc1csc(NC(=O)C2C3C=CC(C3)C2C(=O)O)n1 (centres undefined)	-8%
108	COc1ccc(N/C=C/C(=O)c2ccc(Oc3ncccn3)cc2)cc1	-10%
109	CCOc1ccc(-c2nc(CSCC(=O)NCc3ccco3)c(C)o2)cc1	?
110	CCC(C)NC(=O)CSc1nc2ccccc2c(=O)n1Cc1ccc(OC)cc1 (centres undefined)	?
111	Cc1ccc(C2CC(C(F)(F)F)n3nc(C(=O)NCCN4CCOCC4)cc3N2)cc1 (centres undefined)	1%
112	Cc1ccc(NC(=O)c2ccc(OC(=O)COc3ccc(Cl)cc3C)cc2)cc1	-3%
113	CCOCCCNC(=O)CCCOc1ccccc1	-19%
114	C/C(=N\NC(=O)c1cccc(C)c1)c1cccc(NC(=O)c2ccco2)c1	-15%
115	O=C(c1ccc(F)cc1)N1C2CCC1CC(O)(c1ccc(F)cc1)C2 (centres undefined)	-16%
116	CCOc1ccc(-n2nc3c(=O)[nH]nc(C)c3c2C)cc1	-11%
117	Cc1ccc(CSc2ncccc2C(=O)O)cc1	1%
118	O=C(CSCCc1ccccn1)Nc1cccnc1	-10%
119	COC(=O)CCc1sc(Nc2ccc(Br)cc2)nc1-c1ccc(OC)cc1	-9%
120	Cc1cc(Cc2c(C)c(C)c(Cc3cc(C)cc(C(C)(C)C)c3O)c(C)c2C)c(O)c(C(C)(C)C)c1	-6%
121	CC(=O)Oc1ccc(-c2cccc(C(=O)NCCCO)c2)cc1	-32%
122	CC1(C)Oc2ccc(C(=O)NC3CCCC3)cc2N(CC(=O)N2CCOCC2)C1=O	-28%
123	CCC1CCCCN1C(=O)CSc1nnc(-c2c[nH]c3ccccc23)o1 (centres undefined)	-20%
